Prx2 Sm inh: inhibitors of Schistosoma mansoni peroxiredoxin 2. S. mansoni Prx2 activity coupled to TGR/GSH (TGR is thioredoxin glutathione reductase), NADPH fluorescence loss, qHTS; some inactives read as strong as hits. Potency, µM. 0.07% of 65,000 active. AID 448; active means full or partial inhibition curve with a strong effect at the top dose; inconclusive means weaker partial or single-point curve; inactive means no accepted curve; further: series up to 57 µM; many of its hits are not listed in these tables
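qHTS, coupled TGR/Prx2 format; 15 min compound preincubation at RT; reaction started with H2O2 (2.5 mM aliquot); kinetic NADPH fluorescence decrease, ex 365/em 450 nm.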
LT uptake inh: blocks cellular internalization of anthrax lethal toxin; Cells, anthrax lethal toxin internalization, FRET ratio (460/530); Potency, µM (titrated, usually from 40 µM), for inactives: at the top dose activity change, negative = inhibition, actives largely listed as inhibitors; 0.67% of 70,000 active; AID 912; active = well fitted falling ratio curve with the 530 nm signal flat; inconclusive = other ratio curves, or a change in one channel alone; inactive = flat curves in the ratio and both channels; the % refers to the ratio; further: on the % scale 0 is the no-effect control and ±100 the full control effect; nearly all actives have a fitted effect of over 50% in size; tested in ME-180 cells; beta-lactamase reporter
* hit, by the source's call; ? = inconclusive; · = not tested or not shown; & = joins results of further samples; [ ] = remark or other dose. Potency means the concentration at half of the fitted maximal effect. These rows are one share of the data; the hit share may differ from the screen's.

structure | Prx2 Sm inh | LT uptake inh
C/C(=N/Nc1ccc2ccccc2n1)c1ccccc1O | >57 | 12%[8 µM]
NCCCSC1=NCCCN1 | >57 | 6%
NCCCCCc1nnc(SCc2ccccc2Cl)o1 | >57 | -4%
Cc1cc(C)nc(N(C#N)CC(=O)N2CCC(C(N)=O)CC2)n1 | >57 | -11%
Cc1ccc(C(C)n2cc(C(=O)NCc3cccnc3)nn2)cc1 (centres undefined) | >57 | 5%
COc1ccccc1NC(=O)CNS(=O)(=O)c1ccccc1 | >57 | -7%
Cc1ccc(OC(C)c2nnc(N)s2)cc1Cl (centres undefined) | >57 | -5%
Clc1ccc(Cc2noc(CN3CCN(c4ccccc4)CC3)n2)c(Cl)c1 | >57 | -8%
O=C1c2ccccc2C(=O)C12Cc1ccccc1N1CCN(c3ccccc3)CC12 (centres undefined) | >57 | ?
Cc1cnn(C2CCN(C)CC2)c1N | >57 | -9%
c1ccc2cc3[nH]c(CN4CCOCC4)nc3cc2c1 | >57 | 9%
CCC(=O)N1CCc2cc(S(=O)(=O)Nc3ccc4c(c3)OCCO4)ccc21 | >57 | 5%
CN1CCN(c2ccc([N+](=O)[O-])c3[nH]o[n+](=O)c23)CC1 | >57 | ?
CS(=O)(=O)Nc1nnc(Cc2ccccc2)s1 | >57 | 11%
COc1ncnc2c1oc1nc(C(C)C)c3c(c12)CC(C)(C)OC3 | >57 | -11%
Cc1nc2c(cnn2-c2ccc(Cl)cc2)c(=O)n1-c1ccc2c(c1)OCCO2 | >57 | 4%
OC(CN1CCC(Cc2ccc(F)cc2)CC1)c1ccc(Cl)cc1 (centres undefined) | · | -5%
CC(C)(C)c1ccc(OC2C=CC(C#Cc3ccccc3)OC2CO)cc1 (centres undefined) | · | -3%[8 µM]
CC(=O)Nc1nc(=S)n(-c2ccccc2)[nH]1 | · | -16%
CCc1nnc(NC(=O)CCC(=O)O)s1 | >57 | 0%
CCc1nnc(NC(=O)CSc2nnc(Cc3ccccc3)o2)s1 | >57 | 1%
O=C(O)C1C2CCC(C2)C1C(=O)NCc1ccco1 (centres undefined) | >57 | -8%
O=C(CCC(=O)N(Cc1ccco1)C(C(=O)NC1CCCC1)c1ccncc1)Nc1cccnc1 (centres undefined) | >57 | -1%
S=C(Nc1ccccc1)Nc1nccs1 | >57 | ?
Cc1cccc(Nc2nc(NC(C)C)nc(Oc3ccc(=O)n(C)n3)n2)c1 | >57 | 9%
CN1CCN(c2cc(-c3ccccc3C(F)(F)F)ncn2)CC1 | >57 | 7%
O=C(Cn1cnc2c(nnn2Cc2ccccc2)c1=O)NCc1ccco1 | >57 | -2%
COc1ccccc1CCn1c(=O)c(-c2cccs2)nc2cncnc21 | >57 | ?
COc1ccc(OC2C(O)COC2/C=C/C#Cc2ccc(F)cc2F)cc1 (centres undefined) | · | -4%&-23%[8 µM]
CS(=O)(=O)N(CC(=O)N1CCCCCC1)c1cccc(Br)c1 | · | 2%
CCOCCCNC(=O)C(C)NS(=O)(=O)c1ccc(C)cc1 (centres undefined) | >57 | ?
CCOc1ccc(-n2c(SCC(=O)Nc3nccs3)nc3c(c2=O)SCC3)cc1 | >57 | 3%
CCC(=O)[C@@]1(C)[C@H](C)C[C@@H]2[C@@H]3CCC4=CC(=O)C=C[C@@]4(C)[C@H]3[C@H](O)C[C@]21C | >57 | -11%[3.58 µM]
C=CCSC1=C(C#N)C2(CCCCC2)C(C#N)C(=O)N1 (centres undefined) | >57 | ?
CC(=O)c1cc(F)c(N2CCCC2)cc1C | · | -18%
CC(=O)c1c(COC(=O)c2cccnc2)nc2ccccc2[n+]1[O-] | >57 | ?
COc1ccc(-n2c(C)cc(C(=O)Cn3c(NCCO)nc4ccccc43)c2C)cc1 | >57 | -8%
Cc1cccc(OCC2=N/C(=C\N(C)C)C(=O)O2)c1 | · | -4%
Cc1cc(Cl)ccc1OCC(=O)OC(C)C(=O)NC(N)=O (centres undefined) | >57 | 2%
COCCn1c(=O)[nH]c2cc(C(=O)NCCCN3CCN(c4ccc(F)cc4)CC3)ccc2c1=O | >57 | 3%

Next results follow.
Each structure is followed by: Prx2 Sm inh	LT uptake inh
Cc1cc(SCC(=O)Nc2c(C)n(C)n(-c3ccccc3)c2=O)n2c(nc3ccccc32)c1C#N
 : >57	-4%
CCOc1ccc(C(=O)c2cccs2)cc1
 : >57	6%
CC1CCCC(C)N1C(=O)COc1ccc(-c2nnco2)cc1 (centres undefined)
 : >57	0%
COC(=O)[C@H]1C[C@@H]1[C@H](NP(=O)(c1ccccc1)c1ccccc1)c1ccccc1
 : >57	-4%&9%
O=C(CSc1nnc(-c2ccc(O)cc2)n1Cc1ccco1)c1cccs1
 : >57	0%
CCn1c(SCC(=O)Nc2ccc3c(c2)OCCO3)nnc1-c1ccco1
 : >57	3%
Cc1ccc(SCCCn2cncn2)cc1
 : >57	5%
ClCCCCl
 : ·	10%
COc1ccc(N2CCN(C(c3cc4ccc(C)cc4[nH]c3=O)c3nnnn3C3CCCC3)CC2)cc1 (centres undefined)
 : >57	8%
CCn1cc(C(=O)NC2CCCCCC2)c(=O)c2cc(S(=O)(=O)N3CCCCC3)ccc21
 : >57	0%
COC(=O)CNC(=O)C(Cc1c[nH]c2ccccc12)NC(=O)OC(C)(C)C (centres undefined)
 : >57	6%
Cc1nn(-c2ccccc2)c(Cl)c1C1C(C#N)=C(N)Oc2n[nH]c(C)c21 (centres undefined)
 : >57	-1%
COc1cc(C2Nc3cccc4cccc(c34)N2)cc(OC)c1O
 : >57	?
CCOc1ccccc1NC(=O)C1CCN(S(=O)(=O)c2cccc3cccnc23)CC1
 : >57	-4%
Cc1noc(C)c1C(=O)Nc1sc2c(c1C(N)=O)CCC2
 : >57	3%
Cc1c(C(=O)OCCN2CCCCC2)oc2ccccc12
 : >57	-13%
CC(=O)NC(NC(C)=O)c1ccc(N(C)C)cc1
 : ·	1%
COc1ccccc1CNc1ncncc1-c1ccccc1Cl
 : >57	-11%
O=C(c1ccc2c(c1)OCCO2)N1CCCCC1
 : >57	8%&3%
Nc1nonc1-c1noc(-c2ccc(Br)o2)n1
 : >57	-3%
CC(C)(C)n1nnnc1C(c1cccs1)N1CCN(Cc2ccccc2)CC1 (centres undefined)
 : >57	10%
COC(=O)[C@@]1(Cc2ccccc2)[C@H]2c3cc(C(=O)N(C)C)n(CCF)c3C[C@H]2CN1C(=O)c1ccccc1
 : >57	6%
COc1ccc(CN2CCN(c3ccccn3)CC2)cc1OCc1ccccc1
 : >57	-6%
COC(=O)C1=CN(CC2CCCO2)C=C(C(=O)OC)C1c1ccsc1 (centres undefined)
 : >57	?
O=C(O)c1cccc(-n2nnnc2SCc2ccccn2)c1
 : >57	12%
O=C(NC1CCCCCC1)C1CCN(S(=O)(=O)c2ccccc2)CC1
 : >57	-8%
CC(=O)Nc1ccc(NS(=O)(=O)c2ccc(Cl)c(C(=O)O)c2)cc1
 : >57	18%
COc1ccc(OC)c(-n2cnc3cc(C(=O)O)ccc32)c1
 : >57	7%
Cc1ccccc1Cc1c(C)nc2c(C(=O)NCc3ccco3)cnn2c1C
 : >57	?
Clc1ccc(Cl)c(-c2nn3c(COc4ccccc4)nnc3s2)c1
 : >57	-21%
Cc1ccc2[nH]c(=O)c(CN(CCc3ccccc3)C(=O)N3CCOCC3)cc2c1
 : >57	-20%
COc1cccc2sc(N(C)c3ccccc3)nc12
 : >57	-6%
Cc1cc(C)cc(NC(=O)c2cc(S(=O)(=O)NCc3ccco3)ccc2F)c1
 : >57	-16%
COc1ccc(C[C@@H](N)c2ccc(OC)cc2)cc1
 : >57	6%[8 µM]
Cn1c(=O)c2c(nc(NCCCN3CCOCC3)n2Cc2ccc(Cl)cc2)n(C)c1=O
 : >57	1%
CN1CCN(C(=O)Nc2cccc3ccccc23)CC1
 : >57	-18%
COCCn1c(SCc2csc(-c3ccccc3)n2)nc2ccccc21
 : >57	?
O=C(Nc1nc(-c2ccccn2)cs1)c1ccc(Cl)s1
 : >57	6.3µM*
O=C1C2CCCN2C(c2ccc(F)cc2)N1c1nccs1 (centres undefined)
 : >57	0%
COc1cc(C2CC(=O)c3c([nH]c(C(=O)OCCOC(C)C)c3C)C2)cc(OC)c1OC (centres undefined)
 : >57	?
O=C1Nc2ccccc2C1(O)Cc1ccncc1 (centres undefined)
 : >57	14%
CCCNC(=O)CS(=O)(=O)Cc1nc(-c2cccc(OC)c2)oc1C
 : >57	2%
O=C(Nc1cccnc1)Nc1ccccc1Cl
 : >57	-1%
O=C(CSc1nnc2c3c4c(sc3ncn12)CCCC4)NCc1ccco1
 : >57	7%
Cc1ccc2nc(-c3ccccc3)cn2c1
 : >57	8%
CCOc1ccc(NCc2nnc(SCC(=O)Nc3cc(C)on3)n2-c2ccc(OC)cc2)cc1
 : >57	4%
Cc1cccc(CNc2cc(-c3cccc(C#N)c3)ncn2)c1
 : >57	-22%
O=c1oc2c(CN3CCCCC3)c(O)ccc2cc1-c1nc2ccccc2[nH]1
 : >57	?
Cc1cc(C)n(-c2ccc(C(=O)Nc3nnc(C4CC4)s3)cc2)n1
 : >57	10%
CCOC(=O)c1cc2c(ccn2C)n1CC(=O)N1CCC(Cc2ccccc2)CC1
 : >57	-20%
Cc1nc2cnc(N3CCN(C)CC3)nc2n(CCc2ccccc2)c1=O
 : >57	2%
O=S(=O)(NCc1cccnc1)c1cccs1
 : >57	-7%
CCCN(CCC)CCCNS(=O)(=O)c1ccc2c(c1)oc(=O)n2C
 : >57	-1%
CN[C@]1(C)[C@@H]2CC[C@@H](C2)C1(C)C
 : >57	1%
COc1ccc(/C=C/NC(=O)Cc2ccc(OC)c(OC)c2)cc1
 : ·	?
O=C(NCc1ccc(N2CCCC2=O)cc1)NC1CCCCC1
 : >57	3%
Cc1c(C#N)c(N=CN(C)C)c(C(=O)c2ccccc2)n1-c1ccccc1
 : ·	17%
COc1ccc(C(=O)N2CCC[C@@]3(CCN(Cc4ccc(C#N)cc4)C3)C2)cc1
 : >57	-4%
CCOC(=O)N1CCC(Nc2c(NCCCOC)c(=O)c2=O)CC1
 : >57	?
COc1ccc(Cn2nnnc2CN(Cc2cc3cc(C)ccc3[nH]c2=O)C2CCCC2)cc1
 : >57	-11%

The results go on:
Each structure is followed by: Prx2 Sm inh	LT uptake inh
O=C(C1CCCO1)N1CCN(Cc2nc3ccccc3c(=O)[nH]2)CC1 (centres undefined)
 : >57	9%
N#Cc1c(NC(=O)CN2CCN(C(=O)c3ccco3)CC2)sc2c1CCCCC2
 : >57	-21%
OCC12COC(c3ccccc3)N1C(c1ccccc1)OC2 (centres undefined)
 : >57	-10%
CCOC(=O)c1ccc(NC2OC(=O)c3ccccc32)cc1 (centres undefined)
 : >57	4%
CCC(Sc1nc2n[nH]c(C)c2c(=N)n1-c1ccc(C)c(Cl)c1)C(=O)N1CCOCC1 (centres undefined)
 : >57	2%
CCOC(=O)CSc1nc2c(sc(=S)n2Cc2ccco2)c(=O)n1-c1ccc(F)cc1
 : >57	?
CCC(=C(CC)c1ccc(O)cc1)c1ccc(O)cc1
 : >57	-8%[3.58 µM]
CCOCCCn1c(SCC(=O)NC(C)(C)C)nc2ccccc2c1=O
 : >57	4%
CCC(C)Sc1nnc(Cc2cc(=O)[nH]c(=O)[nH]2)n1-c1ccc(F)cc1 (centres undefined)
 : >57	-11%
CC(C)Cn1c(N)c(C(=O)COC(=O)c2cc(-c3ccco3)nc3ccccc23)c(=O)n(C)c1=O
 : >57	-5%
CC(=O)N1CCC2(CC1)CCN(c1ccc(-c3ccccc3)cc1)CC2
 : >57	-25%
Cc1ccc2cc(CN(CC3CCCO3)S(=O)(=O)c3ccc4c(c3)OCCO4)c(=O)[nH]c2c1C (centres undefined)
 : >57	-4%

Source: PubChem (National Center for Advancing Translational Sciences (NCATS))
